Screens deposited in PubChem by several laboratories.
rRNA inh HTS: inhibits bacterial ribosomal RNA function over humanized ribosomes; E. coli WT GFP vs humanized-ribosome RFP mutants, fluorescence, 24 h; stronger effect = lower value; DMSO median 0, no signal -100; GFP signal change (wild-type ribosome), % (test concentration not listed); 350,000 tested, 1.6% active;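 active = significant combined selectivity score with lowered wild-type GFP, culture density cut under 30%, mutant RFP and density less affected; inactive = any of these conditions unmet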; also: one replicate is shown; some compounds called inactive have numbers as strong as hits
AF4-AF9 inh: blocks AF4 peptide binding to human AF9 | AID 651704 | inhibition, % at 10 µM | 350,000 tested, 0.47% active | AlphaScreen, biotin-AF4 peptide binding to FLAG-AF9;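 active = every replicate reaching a set inhibition limit, whatever the replicate mean, cut at about 25% in these data; inconclusive = mean inhibition reaches that limit but some replicates miss it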;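 also: 0% = plate neutral control median and 100% = total signal loss; the record names both 10 and 1 µM as test concentration; the first replicate is given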
Target sequence (P42568 whole entry, looked up): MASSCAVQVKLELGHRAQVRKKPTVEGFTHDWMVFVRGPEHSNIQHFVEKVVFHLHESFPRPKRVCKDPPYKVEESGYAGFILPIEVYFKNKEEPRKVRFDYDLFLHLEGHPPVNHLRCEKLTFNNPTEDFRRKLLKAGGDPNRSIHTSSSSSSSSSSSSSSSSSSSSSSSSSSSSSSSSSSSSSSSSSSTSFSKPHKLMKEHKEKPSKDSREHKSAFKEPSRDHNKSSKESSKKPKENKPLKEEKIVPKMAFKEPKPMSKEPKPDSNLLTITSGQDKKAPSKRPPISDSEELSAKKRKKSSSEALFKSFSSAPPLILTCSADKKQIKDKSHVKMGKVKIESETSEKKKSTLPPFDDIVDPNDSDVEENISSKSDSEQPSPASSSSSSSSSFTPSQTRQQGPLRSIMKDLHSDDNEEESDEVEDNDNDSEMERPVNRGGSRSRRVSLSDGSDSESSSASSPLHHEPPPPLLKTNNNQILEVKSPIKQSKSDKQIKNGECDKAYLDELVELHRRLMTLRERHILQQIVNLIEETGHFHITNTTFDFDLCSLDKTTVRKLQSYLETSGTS
Beta cell apopt: blocks beta cell apoptosis; INS-1E cytokine-induced death, ATP luminescence, 48 h; percent of positive-control rescue, neutral wells zero; protection from apoptosis, % (concentration not given with the values); 300,000 tested, 0.8% active;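 active = all replicates at 75% or more, or half of them and the mean; inconclusive = half reach 75% but not the mean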;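 also: 0% = cytokine-treated negative control wells and 100% = positive control rescue; higher means more ATP so stronger rescue from cytokine killing; wells of about 40 µL received 100 nL stock; the first replicate is given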
UCH37 DUB inh: blocks the human deubiquitinase UCH37. Q9Y5K5. purified proteasome/UCH37, Ub-AMC cleavage fluorescence. inhibition, % (test concentration not listed). 330,000 tested, 0.33% active. AID 588478;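 active = mean of two replicates above 20%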;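 also: 0% = compound-free wells with enzyme and 100% = wells lacking proteasome; stock transfer was 100 nL into about 20 µL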
Target sequence (Q9Y5K5 whole entry, looked up): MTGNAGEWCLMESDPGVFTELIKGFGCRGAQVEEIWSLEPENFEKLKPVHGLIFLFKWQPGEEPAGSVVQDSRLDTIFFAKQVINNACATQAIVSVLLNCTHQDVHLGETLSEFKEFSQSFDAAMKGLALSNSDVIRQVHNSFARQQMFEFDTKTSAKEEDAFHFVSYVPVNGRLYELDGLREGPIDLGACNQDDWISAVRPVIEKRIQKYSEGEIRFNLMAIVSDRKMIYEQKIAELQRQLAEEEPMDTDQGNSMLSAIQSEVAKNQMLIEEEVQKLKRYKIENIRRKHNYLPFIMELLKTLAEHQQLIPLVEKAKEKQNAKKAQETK
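Schedule: 30 min plus 25 min, room temperature / Material: human UCH37 within purified proteasomes / Technique: AMC fluorescence intensity at 355/460 nm / Buffer or medium: pH 7.4 Tris-HCl (50 mM) with ovalbumin, ATP-MgCl2, DTT / Controls: wells without proteasome as full block, compound-free enzyme plus substrate as uninhibited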
FGF22 binding: FGF22 (human) thermal shift binding | recombinant FGF22 thermal shift, SYPRO orange fluorescence; percent of sucrose octasulfate shift, DMSO zero | AID 651658 | Q9HCT0 | calls only at 9.99 µM | 340,000 tested, 1.5% active;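 active = melting point raised past a set limit in the mean and every replicate; inconclusive = no clear call; three in four hits are not shown here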
Target sequence (Q9HCT0 whole entry, looked up): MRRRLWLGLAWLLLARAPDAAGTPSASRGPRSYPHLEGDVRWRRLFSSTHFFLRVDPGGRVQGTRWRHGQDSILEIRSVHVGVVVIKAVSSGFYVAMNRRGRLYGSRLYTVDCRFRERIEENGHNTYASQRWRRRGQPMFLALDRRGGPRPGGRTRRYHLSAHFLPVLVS
Ecoli growth: inhibitors of Escherichia coli growth; OD600 absorbance (no concentration beside the values); OD600, 23 h; stronger effect = lower value; 330,000 tested, 0.21% active;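 active = OD600 absorbance below the run mean of sample wells minus 3.6 SD, in any replicate, cut at about 0.56 in these data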;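 also: stock transfer was 300 nL into about 60 µL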
T cruzi inh: blocks replication of Trypanosoma cruzi; T. cruzi beta-gal in NIH3T3, luminescence, 90 h; inhibition, % (no concentration beside the values); 300,000 tested, 1.4% active;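 active = mean inhibition across valid replicates above about 55%, limit read from the data; inconclusive = mean below that limit but half or more replicates reach it; inactive = mean below it, under half of replicates reach it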;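 also: signal also drops with host cell toxicity which is not excluded here; 0% = plate median of DMSO wells and 100% = zero luminescence signal; higher percent means less beta-gal luminescence so fewer parasites; stock transfer was 50 nL into about 50 µL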
Bfl-1 A1 inh: inhibitors of the anti-apoptotic protein A1, read as caspase activation; MEF A1-2A-BIM cells, Caspase-Glo 3/7 luminescence, 3 h; percent of clofoctol response, vehicle zero; caspase activation, % (concentration not given with the values); 330,000 tested, 0.066% active; AID 2462;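 active = over half of replicate activation scores above 10%, or exactly half above 10 with the replicate mean above 10; inconclusive = replicate mean below 10 yet half the replicates above 10; inactive = over half of replicates below 10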;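 also: wells of about 30 µL received 50 nL stock; many hits fall short of the cut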
rRNA inh HTS OD600: further read-out of rRNA inh HTS, marked with its call; OD600 change, %; measured here: OD600 growth;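 optical density of the mix in the first replicate; 0 = DMSO median and -100 = no signal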
rRNA inh HTS RFP: second read-out of rRNA inh HTS, no call of its own (marks repeat the call); RFP signal change, %; measured here: RFP humanized mutant strains;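 first replicate; 0 = DMSO median and -100 = no signal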
Numbers without * were called inactive; i = inactive; ? = inconclusive; . = no result given. A portion of the library (hit frequency here may not be typical).

SMILES | rRNA inh HTS | rRNA inh HTS OD600 | rRNA inh HTS RFP | AF4-AF9 inh | Beta cell apopt | UCH37 DUB inh | FGF22 binding | Ecoli growth | T cruzi inh | Bfl-1 A1 inh
C=CCn1c(CCNC(=O)c2cccs2)nnc1SCC(=O)Nc1cccc(Cl)c1C | . | . | . | . | 5 | -1.9 | . | 0.74 | 0 | 2.5
O=C(N/N=C/c1ccc([N+](=O)[O-])cc1)c1cccc2cc[nH]c12 | 12 | 13 | -2.1 | 0.1 | 3 | . | i | . | -10 | -2.4
CC1(C)CSC(=NCCc2ccccc2)N1C(=O)c1ccc(C#N)cc1 | 3 | 4 | -1.0 | 2.0 | -4 | 5.8 | i | 0.69 | 4 | 0.7
COc1cc(/C=N/NC(=O)C[n+]2ccccc2)cc(OC)c1OC | 17 | 2 | -1.8 | -1.4 | . | . | i | . | -16 | 0.5
Cc1ccc(NC(=S)N2CCC(NC(=O)c3ccc(C)cc3)CC2)cc1 | 3 | 9 | -0.1 | 0.4 | 1 | -0.3 | i | 0.64 | 1 | -0.7
CC(Oc1ccc(S(=O)(=O)N2CCCC2)cc1[N+](=O)[O-])C(=O)NC(C)c1ccccc1 (centres undefined) | -5 | -5 | 2.6 | 11 | 3 | -4.2 | i | 0.71 | 10 | -1.1
O=C(NC(=S)NNC(=O)c1cnccn1)c1ccc(F)cc1 | -30 | -45 | -3.7 | -1.6 | 79* | 7.7 | i | 0.41* | 43 | -1.0
NS(=O)(=O)c1cccnc1Nc1cccc(Cl)c1Cl | . | . | . | . | 3 | 0.2 | . | 0.74 | -11 | 0.3
C=CCNC(=O)C1CCC(=O)N1S(=O)(=O)c1ccc(C)cc1 (centres undefined) | 19 | 15 | 4.1 | -4.0 | . | 2.5 | i | 0.63 | -16 | 0.6
COC(=O)c1c(NC(=O)CN2CCOCC2)sc2c1CCC(C)C2 (centres undefined) | . | . | . | . | 7 | 1.2 | . | 0.8 | 23 | ?
O=[N+]([O-])c1cc(-c2cnc3ccccc3n2)ccc1Oc1ccc(Cl)cc1 | 6 | 1 | 0.9 | 2.9 | 5 | 6.6 | i | 0.7 | 0 | 3.5
COc1ccc2[nH]cc(C3N4CC5(C)CN3CC(C)(C4)C5=O)c2c1 (centres undefined) | . | . | . | -8.2 | . | 0.8 | . | 0.68 | -5 | 0.5
O=C(NN1C(=O)c2ccccc2C1=O)c1ccc2c(c1)C(=O)N(CC1CCCO1)C2=O (centres undefined) | 13 | 9 | -1.2 | 1.1 | 0 | 3.4 | i | 0.69 | -20 | 0.1
COC(=O)C(C(=O)OC)C(C[N+](=O)[O-])c1ccc(OC)c(OC)c1 (centres undefined) | . | . | . | . | 2 | 0.7 | . | 0.71 | 0 | 0.7
COc1cccc(-n2nnnc2SCC(=O)Nc2cccc(NC(C)=O)c2)c1 | . | . | . | . | 7 | 0.8 | . | 0.71 | 6 | 0.4
O=C(NCCOc1ccccc1)c1ncn[nH]1 | . | . | . | . | -2 | 1.9 | . | 0.65 | 1 | -0.9
O=Cc1cn(CC(=O)N2CCCCC2)c2ccccc12 | . | . | . | . | 7 | 5.0 | . | 0.68 | -39 | 0.7
CN(C)c1ccc(C(c2ccc(N(C)C)cc2)C(O)c2ccccc2)cc1 (centres undefined) | -2 | -4 | 0.2 | -2.6 | . | 0.6 | i | 0.73 | . | .
O=C1C(CSCc2ccccc2)NC(=S)N1c1ccccc1 (centres undefined) | . | . | . | -2.6 | -8 | 6.2 | i | 0.64 | -12 | -1.2
CC(Oc1ccc(Br)cc1)C(=O)NCC1(N2CCCCC2)CCCCC1 (centres undefined) | . | . | . | 4.9 | 22 | -0.9 | i | 0.7 | . | 1.8
CC(=O)Nc1ccc(S(=O)(=O)NCCC(=O)Nc2cccc(Cl)c2)cc1 | 4 | 13 | 0.7 | -0.9 | -3 | 2.0 | i | 0.68 | -10 | 1.3
CC(=O)O[C@@H]1[C@@H](OC(C)=O)[C@H](n2ccc3cc([N+](=O)[O-])ccc32)OC[C@@H]1OC(C)=O | . | . | . | . | -3 | 4.6 | . | 0.69 | -4 | 0.6
Cc1cc(C)c(S(C)(=O)=O)c(Oc2cccc(C(F)(F)F)c2)n1 | 10 | 14 | 5.5 | -1.2 | -1 | 3.8 | i | 0.72 | 4 | -0.1
CCN1CCN(c2cc(C)c3cc(NC(=O)c4ccc(Br)o4)ccc3n2)CC1 | . | . | . | . | 9 | 4.5 | . | 0.67 | 35 | 0.5
O=C(CN(Cc1ccccc1)S(=O)(=O)c1ccccc1)NC1CC1 | 3 | 0 | -3.4 | 2.8 | -4 | 5.3 | i | 0.66 | -3 | -0.2
Additional records
SMILES | rRNA inh HTS | rRNA inh HTS OD600 | rRNA inh HTS RFP | AF4-AF9 inh | Beta cell apopt | UCH37 DUB inh | FGF22 binding | Ecoli growth | T cruzi inh | Bfl-1 A1 inh
Cc1ccccc1CN1C(=O)C(C)S/C1=N/N=C/c1ccco1 (centres undefined) | -23* | -13* | -3.0* | 22 | 4 | . | i | . | 9 | 0.3
CCCc1cc(Nc2cccc(OC)c2)n2ncnc2n1 | . | . | . | . | -3 | 0.4 | . | 0.68 | -16 | 0.8
COc1ccc(S(=O)(=O)N2CCC(C(=O)N3CCOCC3)CC2)cc1Cl | 10 | 7 | 1.4 | -3.2 | -4 | 0.4 | i | 0.67 | -8 | -0.1
CCOC(=O)C1=C(COC(=O)c2ncc(Cl)c(Cl)c2Cl)NC(=O)NC1C (centres undefined) | 2 | 5 | 1.6 | ? | -2 | 1.2 | i | 0.69 | -28 | 0.1
COc1cc(/C=N/Nc2nc3ccccc3s2)ccc1O | -46 | -49 | -17 | 7.8 | -9 | . | i | . | 38 | -4.8
COc1cc(-c2cc3nc4ccccc4n3c(N)c2C#N)cc(OC)c1OC | -1 | 2 | 0.1 | -3.2 | 3 | -489 | i | 0.72 | 3 | 0.2
CC(C)=C(NC(=O)c1ccccc1)C(=O)Nc1cccc(C)c1 | 26 | 14 | 5.5 | -1.5 | 1 | 4.1 | i | 0.73 | -4 | 1.0
Cc1nn(C(=O)N2CCOCC2)c(C)c1C | . | . | . | . | -6 | 0.1 | . | 0.74 | -18 | 0.3
COc1nc(-c2ccccc2)nc(C)c1CC(=O)O | -4 | -10 | -2.7 | -2.2 | 1 | 0.4 | i | 0.73 | -5 | 0.2
N#CCC(=O)Nc1ccc(C(=O)Nc2ccc3c(c2)OCO3)cc1 | -1 | 16 | 1.6 | 1.9 | -3 | -0.4 | i | 0.65 | . | -2.2
N#Cc1ccccc1Cn1c(-c2cscn2)nc2ccccc21 | . | . | . | . | 0 | 4.0 | . | 0.66 | 0 | 0.7
CN(C)S(=O)(=O)c1cc(NC(=O)COC(=O)c2nc(Cl)ccc2Cl)ccc1Cl | -5 | -2 | 3.5 | -3.2 | -6 | 1.0 | i | 0.7 | . | -0.7
Cn1c(=O)c(C(=O)Nc2ccccc2S(N)(=O)=O)c(O)c2ccccc21 | 3 | -2 | -1.2 | 3.7 | 4 | 2.6 | i | 0.71 | -5 | -0.4
COc1cc(CNCCO)ccc1OCC(=O)Nc1ccc(Br)cc1 | 2 | -6 | -0.5 | . | 4 | 5.6 | . | 0.66 | -8 | 0.4
CC1(C)CC2CC(C)(CN2S(=O)(=O)c2ccc(F)cc2F)C1 (centres undefined) | . | . | . | -2.8 | -1 | 1.0 | i | 0.65 | . | 0.8
COc1cc(N2CCCC2)c(OC)cc1/C=C(/C#N)c1ccc(Br)cc1 | . | . | . | . | 3 | 12 | . | 0.74 | 8 | -0.2
O=C(Nc1cccc(C(F)(F)F)c1)Nc1ccc2[nH]c(=O)[nH]c2c1 | -1 | 3 | 3.7 | -6.6 | -1 | -2.8 | i | 0.65 | -2 | -0.2
Cc1cc(NC(=O)c2cccc(C)c2[N+](=O)[O-])no1 | 18 | 16 | -0.5 | 0.7 | . | 1.8 | i | 0.67 | -4 | 0.5
COc1cccc(NC(=S)N2CCN(S(=O)(=O)c3ccccc3)CC2)c1 | -1 | 4 | 1.1 | 0.4 | 4 | 0.6 | i | 0.64 | . | -0.9
O=S(=O)(N/N=C/c1ccccc1F)c1ccccc1 | 20 | 12 | -1.0 | -0.9 | . | . | . | . | -11 | 0.2
COc1ccc(-c2nn(-c3ccccc3)cc2/C=C/C(=O)OCC(=O)Nc2ccccc2C#N)cc1 | 19 | 19 | -1.4 | 0.5 | 31 | . | i | . | 0 | 24*
Cc1cc(NC(=O)c2ccc(C)c([N+](=O)[O-])c2)no1 | -15 | -48 | 2.3 | 0.4 | 7 | 2.2 | i | 0.7 | -12 | -0.8
CCCCN(C(=O)CSCc1c(C)noc1C)c1c(N)n(CCC)c(=O)[nH]c1=O | 5 | 4 | -0.7 | -2.1 | . | 2.5 | i | 0.68 | -3 | -0.2
CC(C)Cn1c(Br)nc2c1c(=O)n(CCC#N)c(=O)n2C | . | . | . | . | . | 3.5 | . | 0.72 | 2 | 0.6
COc1cc(N=Cc2c(O)[nH]c3ccccc23)cc(OC)c1OC | . | . | . | . | 5 | 13 | . | 0.66 | -83 | 0.0
Additional entries follow.
SMILES | rRNA inh HTS | rRNA inh HTS OD600 | rRNA inh HTS RFP | AF4-AF9 inh | Beta cell apopt | UCH37 DUB inh | FGF22 binding | Ecoli growth | T cruzi inh | Bfl-1 A1 inh
CCN(CC)S(=O)(=O)c1cccc(NC2=NCCCCC2)c1 | 7 | -6 | -9.8 | -1.5 | 1 | 2.3 | i | 0.7 | 5 | 0.5
CC(O)CNCCNCc1c(OCc2ccccc2)ccc2ccccc12 (centres undefined) | . | . | . | . | 6 | 6.3 | . | 0.66 | 22 | -1.9
COc1ccc(OC)c(C(=O)N(C)C2CCCN(Cc3ccccc3F)C2)c1 (centres undefined) | 8 | 7 | 1.2 | -0.8 | . | 0.9 | i | 0.65 | 3 | 0.0
COc1ccc(NC(=O)C(Br)C(C)C)cc1 (centres undefined) | 12 | 14 | -4.2 | -3.2 | -8 | 0.0 | i | 0.65 | -5 | 0.0
O=C(O)CSc1c2c(nc3cc(C(=O)N4CCOCC4)ccc13)CCCC2 | . | . | . | . | -4 | -5.8 | . | 0.64 | 7 | -1.3
c1cc(C(c2nnnn2C2CCCC2)N2CCOCC2)ccn1 (centres undefined) | . | . | . | . | . | 0.9 | . | 0.71 | -20 | 0.0
CCOC(=O)c1sc(N(Cc2ccccc2)C(=O)CN2C(=O)CN(C)C2=O)nc1C | . | . | . | . | 0 | -0.3 | . | 0.72 | 9 | -0.4
CN(Cc1ccco1)c1ncnc2ccc(-c3ccc4c(c3)OCO4)cc12 | 17 | 8 | 2.5 | -6.1 | -1 | -6.9 | . | 0.65 | . | 0.7

Among those listed so far, these contain a COOH group:
SMILES | rRNA inh HTS | rRNA inh HTS OD600 | rRNA inh HTS RFP | AF4-AF9 inh | Beta cell apopt | UCH37 DUB inh | FGF22 binding | Ecoli growth | T cruzi inh | Bfl-1 A1 inh
COc1nc(-c2ccccc2)nc(C)c1CC(=O)O | -4 | -10 | -2.7 | -2.2 | 1 | 0.4 | i | 0.73 | -5 | 0.2
O=C(O)CSc1c2c(nc3cc(C(=O)N4CCOCC4)ccc13)CCCC2 | . | . | . | . | -4 | -5.8 | . | 0.64 | 7 | -1.3
